Marburg entry inh – qHTS for inhibitors of binding or entry into cells for Marburg Virus; Marburg virus pseudotyped entry inhibition, cell reporter; control for the full effect not named in the record; about a third of the inactives were read at about 46 µM; Potency, µM (series often up to 37.8 µM), for inactives: at the top dose activity change, negative = inhibition, actives largely listed as inhibitors; actives 1.8% (n = 300,000); AID 540276, 2011; active = well fitted inhibition curve with a large enough effect; inconclusive = small, poorly fitted or top-dose-only effect, or effect the other way; inactive = flat fitted curve, though single readings scatter; tested in HEK293 cells; about a fifth of its hits are not listed in these tables; also: % is scaled to controls: 0 for no effect and ±100 for the full control effect; luciferase read-out
RE007 growth inh – qHTS Assay for Inhibitors of the HIV-1 protein Vpr; actives 0.21% (n = 360,000); S. pombe RE007 Vpr strain, BacTiter-Glo ATP luminescence, 24 h; control for the full effect not named in the record; Potency, µM (highest dose often 92.2 µM), for the others: at the highest dose activity change, negative = less growth; active = well fitted falling curve with a large enough effect; inconclusive = small, poorly fitted or top-dose-only effect; inactive = no such curve, though single readings can be large or run the other way;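 also: % is scaled to controls: 0 for no effect and ±100 for the full control effect; nearly all actives have a fitted effect of over 50% in size; the assay follows cell death caused by Vpr and the record does not say whether a fall means rescue or toxicity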
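Fission yeast strain RE007, carrying one chromosomally integrated HIV-1 vpr copy, was seeded at OD 0.01 in PMG+AL medium with 23 nL pinned compound. After 24 h at 30 °C and 99% humidity, viability was read by BacTiter-Glo luminescence.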
LASV entry inh – qHTS for Inhibitors of binding or entry into cells for Lassa Virus; actives 1.2% (n = 300,000); Potency, µM (series often up to 37.9 µM), for inactives: at the highest dose activity change, negative = inhibition, most hits filed as inhibitors; AID 540256, 2011; Lassa virus pseudotype entry inhibition, cell reporter; control for the full effect not named in the record; active means well fitted inhibition curve with a large enough effect; inconclusive means small, poorly fitted or top-dose-only effect, or effect the other way; inactive means flat fitted curve, though single readings scatter; tested in HEK293 cells; also: % is scaled to controls: 0 for no effect and ±100 for the full control effect; nearly all actives have a fitted effect of over 50% in size; luciferase read-out
NS1 function inh – qHTS Assay for Inhibitors of Influenza NS1 Protein Function; S. cerevisiae slowed by influenza A NS1, growth recovery by OD600; Potency, µM (doses to about 46.1 µM), inactives show at the top dose activity, positive = more growth; AID 2326, 2010; actives 0.4% (n = 270,000); active means well fitted rising curve with a large enough effect; inconclusive means small, poorly fitted or top-dose-only effect; inactive means no such curve, though single readings can be large or run the other way; also: nearly all actives have a fitted effect of over 50% in size
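Compounds were scored for reversing the slow growth caused by influenza A NS1 in S. cerevisiae, measured by optical density at 600 nm. Assay medium contained 2% galactose at pH 6.0; NS1-free yeast of the same strain were the positive control.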
SARS PLpro yeast – qHTS of Yeast-based Assay for SARS-CoV PLP | AID 485353, 2010 | S. cerevisiae expressing SARS-CoV PLpro, growth rescue; control for the full effect not named in the record | Potency, µM (series often up to 32.9 µM), for the others: at the highest dose activity, positive = growth rescue | actives 0.19% (n = 330,000); active means well fitted rising curve with a large enough effect; inconclusive means small, poorly fitted or top-dose-only effect; inactive means no such curve, though single readings can be large or run the other way; also: 0% is about no effect; nearly all actives have a fitted effect of over 55% in size; growth read by luminescence after 48 h
Cruzain Triton – qHTS Assay for Promiscuous and Specific Inhibitors of Cruzain (with detergent); Cruzipain (Trypanosoma cruzi), P25779; purified cruzain, Z-FR-AMC fluorescence, 0.01% Triton; Potency, µM, without a hit: max response, negative = inhibition, usual class: inhibitors; actives 0.43% (n = 200,000); AID 1478, 2009;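 also: plate controls were neutral wells for no effect and buffer without enzyme for full effect; nearly all actives have a fitted effect of over 40% in size; top concentration of the series not given in the record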
Target sequence (P25779 123-467 limits assumed): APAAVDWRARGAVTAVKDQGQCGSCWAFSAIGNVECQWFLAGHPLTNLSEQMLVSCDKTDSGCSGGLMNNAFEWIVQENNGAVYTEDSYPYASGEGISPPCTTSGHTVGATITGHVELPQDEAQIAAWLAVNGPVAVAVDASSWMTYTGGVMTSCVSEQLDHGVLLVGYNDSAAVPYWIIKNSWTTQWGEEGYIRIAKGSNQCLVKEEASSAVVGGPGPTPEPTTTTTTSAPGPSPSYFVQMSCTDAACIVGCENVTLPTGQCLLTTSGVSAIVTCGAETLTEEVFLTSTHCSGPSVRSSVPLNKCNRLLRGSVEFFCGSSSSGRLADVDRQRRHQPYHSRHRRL
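Enzyme 1.5 nM, Z-FR-AMC 2 uM, NaOAc 100 mM pH 5.5, DTT 5 mM, Triton X-100 0.01%; 15 min RT compound preincubation; kinetic ex360/em450, 60 s delta.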
2A StopGo – High Throughput Screening for Foot and Mouth Disease Virus Antivirals; AID 1159524, 2015; human cells with a luciferase reporter of 2A StopGo recoding; control for the full effect not named in the record; actives 1.2% (n = 410,000); Potency, µM (top dose mostly 57.9 µM), inactives show top-dose signal change, negative = less light; active = well fitted falling curve with a large enough effect; inconclusive = small, poorly fitted or top-dose-only effect; inactive = no such curve, though single readings can be large or run the other way; tested in HEK293T cells; also: % is scaled to controls: 0 for no effect and ±100 for the full control effect; nearly all actives have a fitted effect of over 45% in size; luciferase light after 4 h
Cruzain inh noDet – qHTS Assay for Promiscuous and Specific Inhibitors of Cruzain (without detergent); Potency, µM, for inactives: max response, negative = inhibition, usual class: inhibitors; purified cruzain, Z-FR-AMC fluorescence, no detergent; AID 1476, 2009; Cruzipain (Trypanosoma cruzi), P25779; actives 2.3% (n = 200,000);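 also: plate controls were enzyme without inhibitor for no effect and buffer without enzyme for full effect; nearly all actives have a fitted effect of over 40% in size; top concentration of the series not given in the record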
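Purified cruzain at 1.5 nM, pre-incubated 15 min with compound at room temperature in 100 mM sodium acetate pH 5.5, 5 mM DTT, 0.00005% Triton X-100. Reaction started with 2 uM Z-FR-AMC; AMC fluorescence increase over 60 s gives rate.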
Starred values were filed as active, the others as inactive; ? = inconclusive; · = not tested or not shown; [ ] = remark or other dose. Unless noted, calls follow the shape of the dose curve; as a rule, active = well fitted curve in the direction sought with a large enough effect; inconclusive = small, poorly fitted or top-dose-only effect, or another doubt; inactive = no such curve, though single readings can be large; an effect the other way counts as inactive or inconclusive. Potency is read from the fitted curve at half-maximal effect.

SMILES	Marburg entry inh	RE007 growth inh	LASV entry inh	NS1 function inh	SARS PLpro yeast	Cruzain Triton	2A StopGo	Cruzain inh noDet
O=C(O)c1cn(-c2ccccc2)nc1-c1ccncc1	23%[46.1 µM]	-26%	7%	9%	-2%	-0.6%	10%	17%
CCOC(=O)c1[nH]c2c(c1Cc1ccccc1)C(=O)CC(c1ccc(Cl)cc1)C2 (configuration not stated)	?	·	-5%[46.1 µM]	·	·	-5.4%	-6%	?
Cn1c(NC(=O)c2ccc(F)cc2)c(-c2cccs2)c(=O)c2ccccc21	15%	-12%	-30%	12%	-1%	·	-5%	·
CC1CCN(S(=O)(=O)c2ccccc2)CC1	5%[46.1 µM]	14%	0%[46.1 µM]	11%	4%	·	-2%	·
O=C(CSc1nnnn1-c1ccc2c(c1)OCCO2)OC1CCCCC1	15%	-11%	5%	-12%	5%	-4.8%	29%	-4%
Cc1cc(OCC(=O)N2CCCC2)ccc1Cl	11%	-6%	?	-5%	-6%	2.6%	42%[activator]	9%
CCc1cc(C(=O)N(CC)CC(=O)Nc2ccc(OC)cc2)sc1C	-11%	-15%	-14%	·	-1%	·	8%	·
O=[N+]([O-])c1ccc(Cl)c(/C=N/n2c(-c3ccncc3)n[nH]c2=S)c1	18%[46.1 µM]	12%	2%	4%	-2%	·	-6%	·
COc1cccc(C(=O)Nc2ccc(N3CCN(C(=O)c4cccs4)CC3)cc2)c1	?	-2%	?	3%	0%	·	32µM*	·
COc1ccc(Oc2nc3c(C)cccn3c(=O)c2/C=C(\C#N)C(N)=O)cc1	?	21%	?	-1%	-2%	·	?	·
COc1ccc(-c2cc(C(=O)Nc3cnn(Cc4ccc(F)cc4)c3)no2)cc1OC	-23%[46.1 µM]	·	?	·	·	-1.8%	-13%	4%
NC(=O)CSc1nc(C23CC4CC(CC(C4)C2)C3)nc2ccccc12	·	0%	·	-6%	-2%	·	-14%	·
O=C(O)C1=C(Nc2ccccc2)OCC1=O	13%[46.1 µM]	-16%	?	6%	0%	·	45%[activator]	·
C/C(=N\Nc1ccc(F)cc1F)c1ccc(F)cc1	0%	·	·	2%	2%	-10%	·	-12%
CN(Cc1ccccc1)S(=O)(=O)c1ccc(Cl)c(C(=O)NCCc2ccccn2)c1	-13%	7%	-16%	-3%	-1%	·	-21%	·
Cc1ccccc1-n1c(Cn2c(=O)sc3ccccc32)nnc1SC(C)C	·	24%	·	-43%	10%	0.6%	-14%	13%
COC(=O)CCCSc1nccn1-c1ccccc1	·	9%	·	-3%	3%	·	14%	·
CC(C)(C)c1cc(NC(=O)c2cccc([N+](=O)[O-])c2)no1	19%[46.1 µM]	-3%	?	?	-1%	·	52%[activator]	·
CC1CCC(NC(=O)CCS(=O)(=O)c2ccc3c(c2)NC(=O)CO3)CC1 (configuration not stated)	·	9%	·	-1%	-22%	·	-11%	·
CCCCn1c(=O)c(C(=O)Nc2ccsc2C(=O)OC)c(O)c2ccccc21	?	16%	13%	-2%	16%	-1.7%	-4%	4%
Cc1ccc(Cn2c(C)c(CNC(C)c3ccccc3)c(C(=O)O)c2C)cc1 (configuration not stated)	?	·	3%[46.1 µM]	·	·	5.1%	-12%	11%
CCOc1ccc(-c2nc(S(=O)(=O)c3ccccc3)c(N3CCC(C(N)=O)CC3)o2)cc1	·	-10%	·	-3%	7%	·	9%	·
CCOC(=O)C1(Cc2ccc(OC)cc2)CCN(C(=O)CCN2CCCC2=O)CC1	·	5%	·	-3%	1%	·	31%[activator]	·
CCOC(=O)C1=C(COC(=O)C2(C)CC2(Cl)Cl)NC(=O)NC1c1ccccc1 (configuration not stated)	·	8%	·	-6%	1%	·	5%	·
Cc1ccc2cccc(OC(=O)N3CCCC3)c2n1	-2%	0%	0%	-2%	4%	3.5%	-11%	-16%
CCCCN(Cc1ccccc1)C(=O)c1oc(=O)c2ccccc2c1-c1ccc(C)cc1	?	·	-11%[46.1 µM]	·	·	-8.9%	0%	?
O=C(c1csc2c1CCCC2)N1CCCCC1	?	-4%	11%	-3%	-3%	-0.4%	47%[activator]	12%
Cc1ccc(S(=O)(=O)N(CC(=O)O)Cc2ccccc2)cc1	-11%	1%	-6%	-9%	-9%	3.6%	14%	-5%
CSCCC(NC(=O)/C(=C/c1ccco1)NC(=O)c1ccco1)C(=O)O (configuration not stated)	18%[46.1 µM]	53%	12%	·	·	·	8%	·
Cc1ccccc1CC(=O)NC1CCN(Cc2ccccc2)CC1	-11%[46.1 µM]	14%	15%[46.1 µM]	-51%	-5%	·	-9%	·
COc1ccc(NC(=O)CC2C(=O)N(c3ccccc3)C(=O)N2C2CCCCC2)cc1 (configuration not stated)	-5%[46.1 µM]	·	-14%[46.1 µM]	·	·	0.0%	-19%	-4%
CCCCNC(=O)CCn1c(=O)c2ccccc2n(CC(=O)N2CC(C)CC(C)C2)c1=O (configuration not stated)	0%	25%	-12%	6%	8%	2.7%	-12%	-5%
CCn1cc(CN2CCC(C(=O)Nc3ccc(Oc4cccnc4)cc3)CC2)cn1	?	-18%	22%	21%	8%	·	-19%	·
CSc1cnc2c(N)nc(N(C)C)nc2n1	29%	11%	7%	-2%	9%	-8.3%	-8%	-12%
Cc1ccc(N2CC(=O)N(NC(=O)CN3CCN(c4ccccc4)CC3)CC2=O)cc1	-6%[46.1 µM]	-8%	-14%[46.1 µM]	-2%	0%	·	-7%	·
O=[N+]([O-])c1ccccc1Nc1ccc(O)cc1	21%[46.1 µM]	?	-26%	-6%	-1%	·	20%	·
O=C(NC(=S)Nc1ccccc1C(=O)O)c1ccc2ccccc2c1	?	?	15%[46.1 µM]	-30%	-5%	·	38%[activator]	·
COc1cc2[nH]c3c(=O)n(CCN4CCCCC4)cnc3c2cc1OC	?	-12%	?	-6%	?	-2.6%	20%	1%
Cn1cnc2c(=O)oc3ccc(S(=O)(=O)Nc4ccc(F)cc4)cc3c21	·	·	2%[46.1 µM]	·	·	-2.2%	-25%	22%
CN(C(=O)c1cc(COc2ccc(F)cc2Cl)on1)C1CCCc2ccccc21 (configuration not stated)	·	-7%	·	-4%	-1%	·	0%	·
CN(C)CCCN(C(=O)c1ccc(S(=O)(=O)N2CCc3ccccc32)cc1)c1nc2ccc(Cl)cc2s1	?	-5%	?	22%	-4%	·	-24%	·
COc1ccc(NC(=S)Nc2nc(CC(=O)Nc3ccccc3OC)cs2)cc1	?	11%	?	16%	-12%	-7.6%	22µM*	-28%
CSc1nc(N)nc2c1ncn2Cc1ccccc1	1%[46.1 µM]	-6%	0%[46.1 µM]	·	·	·	-14%	·
COc1cc(CNCc2c[nH]c3ccccc23)cc(OC)c1	?	-18%	-21%	0%	1%	·	?	·
Cc1ccc(NC(=O)CN(C)S(=O)(=O)c2cnc[nH]2)cc1C	28%	12%	-1%	0%	-3%	-2.0%	7%	7%
COc1ccc(-c2nc(CN3CCC(c4ccccc4)CC3)c(C)o2)cc1OC	?	-14%	-2%[46.1 µM]	3%	0%	·	-15%	·
COc1ccc(S(N)(=O)=O)cc1C(=O)OCC1CCCCC1	4%[46.1 µM]	38%	?	-21%	-5%	·	-1%	·
Cc1ccc2nc(NCC(=O)NN)nc(-c3ccccc3)c2c1	-23%[46.1 µM]	5%	-13%[46.1 µM]	12%	-1%	·	-4%	·
Cc1ccc(N2C(=O)C3C4C=CC(C4)C3C2=O)cc1 (configuration not stated)	16%	1%	-12%	-2%	3%	4.1%	-14%	0%
Cc1cccc(OCc2n(CC(=O)OC3CC(C)CCC3C(C)C)c3ccccc3[n+]2C)c1 (configuration not stated)	2.5µM*	14%	?	2%	-1%	·	?	·

(more compounds)
SMILES	Marburg entry inh	RE007 growth inh	LASV entry inh	NS1 function inh	SARS PLpro yeast	Cruzain Triton	2A StopGo	Cruzain inh noDet
Cc1cccc(C)c1NC(=S)NCc1ccccc1	?	8%	-16%[46.1 µM]	-8%	-3%	·	2%	·
Nc1nc(SCC(=O)NCc2ccccc2)[nH]c(=O)c1NC(=O)c1ccccc1F	-2%	35%	1%	26%	-8%	0.6%	2%	5%
COc1ccc(S(=O)(=O)N2CCc3ccccc32)cc1OC	?	58%	?	4%	7%	·	1%	·
CCCc1cc(C(=O)Nc2c(C)n(C)n(-c3ccccc3)c2=O)no1	·	14%	·	7%	4%	1.8%	-6%	-12%
O=C(Nc1ccccc1)N(Cc1cccnc1)Cc1ccco1	11%	13%	6%	2%	-6%	-0.3%	4%	-17%
COc1ccc(N(C)C(=O)c2ccc3c(c2)nnn3C)cc1	-2%[46.1 µM]	-8%	-1%	0%	0%	·	-11%	·
CCOC(=O)c1ccc(CNC(=O)CSc2nnc(-c3ccncc3)o2)cc1	?	0%	4%	-2%	4%	-3.4%	-24%	0%
CCOC(=O)C(O)(C1C(=O)CC(C)(C)CC1=O)C(F)(F)F (configuration not stated)	15%[46.1 µM]	-1%	2%	15%	1%	1.2%	3%	1%
Cc1ccccc1-c1nnn(CC(=O)NCc2ccc3c(c2)OCO3)n1	-13%	-18%	-5%	0%	4%	1.9%	9%	-12%
O=C(CCCc1nc2ccccc2s1)NC1CCOC1=O (configuration not stated)	9%[46.1 µM]	-19%	-23%[46.1 µM]	·	1%	·	16%	·
O=S1(=O)CC(O)C(Nc2ccccc2Cl)C1 (configuration not stated)	29%	1%	-1%	-3%	2%	1.0%	11%	0%
CC(C)Cc1cc(C(=O)N2CCC(N3CCC(C(=O)N4CCOCC4)CC3)CC2)n[nH]1	·	8%	·	-1%	0%	·	-14%	·

Assay outcomes (PubChem)
